High-throughput results: PubChem, several laboratories
CSC inhib – cancer stem cell viability inhibitors, primary screen, luminescence. cancer stem cell-like cells viability. inhibition, % at 7.5 µM. actives 1.1% (n = 300,000);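 active means mean at 75% or more and at least half the replicates too; inconclusive means mean and replicates disagree; tested in HMLE shEcad cells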;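 further: 0% = median of negative and 100% = median of positive control wells; the first replicate is given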
Rce1 inh – yeast Rce1p protease inhibitors, primary screen, biochemical, fluorescence, cell-free homogeneous; calls only; yeast membranes, quenched prenylated peptide cleavage fluorescence; actives 0.27% (n = 290,000);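 active means fall in fluorescence gain of 50% or more versus controls, with final raw signal at or below 3038400; inconclusive means same 50% fall but final raw signal above 3038400; inactive means fall in fluorescence gain under 50%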;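 further: plate controls were neutral control wells for no effect and wells lacking membranes for full effect; tested at 10 µM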
Target sequence (Q03530 whole entry, looked up): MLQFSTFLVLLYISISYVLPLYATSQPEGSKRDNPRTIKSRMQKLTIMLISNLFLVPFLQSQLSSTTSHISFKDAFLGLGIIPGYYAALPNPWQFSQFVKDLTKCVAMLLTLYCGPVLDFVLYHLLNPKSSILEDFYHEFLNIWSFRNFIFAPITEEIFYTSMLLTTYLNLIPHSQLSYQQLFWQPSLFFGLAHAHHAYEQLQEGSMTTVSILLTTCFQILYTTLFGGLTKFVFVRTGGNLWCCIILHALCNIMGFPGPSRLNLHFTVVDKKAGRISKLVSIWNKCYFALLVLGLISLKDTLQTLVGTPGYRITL
eIF4H inh – human eIF4H binding inhibitors, primary screen, translation initiation inhibitor project, biochemical, uHTS, fluorescence polarization. actives 0.94% (n = 290,000). inhibition, % at 35 µM. eIF4H fluorescence polarization binding assay. Eukaryotic translation initiation factor 4H (Homo sapiens), Q15056;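 active means 50% or more with normal probe brightness, or confirmed in later tests; inconclusive means above 50% with abnormal brightness, or retests that disagree; inactive means below 50% or failed in later tests; about a fifth of its hits are not listed in these tables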;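 further: calls also rest on retests at 20 µM and on dose response follow-up; 0% = protein and probe with vehicle and 100% = probe without protein; strong numbers were not always called active; many hits fall short of the cut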
HIV Env fusion – inhibitors of HIV-1 Env-driven cell-cell fusion, primary screen, HeLa-JRFL effector, CEM21 target cells, luciferase | inhibition, % at 12.3 µM | actives 1.1% (n = 360,000);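 active means mean replicate inhibition score of at least 50 and every replicate individually at or above 50; inconclusive means only one of the two criteria met; inactive means mean below 50 and not all replicates reaching 50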;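 further: 0% = plate neutral controls and 100% = maraviroc near 300 nM; one replicate is shown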
UUG fidelity – modulators of yeast start codon fidelity, primary screen, whole organism, S. cerevisiae, single point, plate reader; S. cerevisiae UUG-firefly luciferase reporter, luminescence/redox ratio; activity score, % at 18.7 µM; actives 0.13% (n = 350,000);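 active means replicate mean at a twofold rise or more, about +100% in these data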;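 further: firefly luciferase made from a UUG start codon reports start codon fidelity; reporter light over untreated wells divided by growth signal over untreated wells; some hits fall short of that in this replicate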
PABP polyA inh – PABP poly(A) RNA binding inhibitors, primary screen, biochemical, fluorescence polarization, uHTS | Polyadenylate-binding protein 1 (Homo sapiens), P11940 | inhibition, % at 35 µM | actives 1% (n = 290,000);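 active means 50% or more with normal probe brightness, or confirmed in later tests; inconclusive means above 50% with abnormal brightness, or retests that disagree; inactive means below 50% or failed in later tests; about a fifth of its hits are not listed in these tables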;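 further: calls also rest on retests at 20 µM and on dose response follow-up; controls were probe without protein and protein plus probe with vehicle; some compounds called inactive have numbers as strong as hits; many hits fall short of the cut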
MT1-MMP act inh – blockers of MT1-MMP proenzyme processing, primary screen, HT1080 RFP-PRO-GFP cells, GFP/RFP fluorescence | GFP/RFP ratio change, % at 20 µM | GFP/RFP ratio fluorescence, overnight; percent of plate control window, DMSO zero | actives 0.061% (n = 360,000);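 active means GFP/RFP ratio change of at least 30% with cell ATP level not reduced by more than half and red fluorescence within 50% of control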; further: strong numbers were not always called active
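system = RFP-PRO-GFP reporter HT1080 cells | dosing = 20 µM single dose, 1% DMSO | timing = overnight cell settling, then overnight compound exposure, 37 °C, 5% CO2 | read-out basis = GFP/RFP fluorescence ratio | controls = DMSO and RFP-L50D-GFP cell wells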
eIF4H inh retest – further read-out of eIF4H inh, marked with its call; inhibition, %; compound at 20 µM; confirmation average;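 mean of two retest wells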
PABP polyA inh retest – second read-out of PABP polyA inh, no call of its own (marks repeat the call); inhibition, %; compound at 20 µM; confirmation repeats;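 mean of two retest wells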
MT1-MMP act inh RFP – recorded beside MT1-MMP act inh, whose call it bears; RFP signal change, %; measured here: RFP expression control read;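 0 = vehicle wells; hits needed this value within 50% of zero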
Starred values were filed as active, the others as inactive; i = inactive; ? = inconclusive; . = not tested or not shown. No enrichment for hits. About 2.9% of those tested had a hit in this group.

SMILES | CSC inhib | Rce1 inh | eIF4H inh | HIV Env fusion | UUG fidelity | PABP polyA inh | MT1-MMP act inh | MT1-MMP act inh RFP | others
CCC(=O)N(Cc1cc2ccc(C)cc2n2nnnc12)C1CCCCC1 | -1 | i | -7 | -3 | . | 5 | 1 | -2
CCCCCC(=O)Nc1ccc(S(=O)(=O)Nc2nccc(C)n2)cc1 | -2 | . | -10 | -6 | . | 49 | 0 | 1
Cc1nnsc1-c1nnc(SCC(=O)c2ccc(C#N)cc2)n1C1CC1 | 1 | i | -1 | 4 | -7 | 2 | 2 | 1
Oc1ccc(/C=N/Nc2ncnc3c2ncn3Cc2ccccc2)cc1O | 20 | i | 1 | 40 | . | 0 | 6 | -10
CCOC(=O)c1c2c(n(C)c1C)C(=O)C(=O)c1ccc(Br)cc1-2 | 121* | i | . | -18 | -31 | . | 15 | -23
CCOC(=O)/C(C#N)=C/c1cccn1-c1ccc(Cl)cc1 | -1 | i | -13 | 6 | -8 | -6 | 1 | -4
CCN(Cc1ccccc1)C(=O)C(C)OC(=O)c1cc(S(=O)(=O)Nc2c(C)n(C)n(-c3ccccc3)c2=O)ccc1C (stereo unspecified) | -8 | i | -10 | 19 | . | -18 | 0 | -3
O=C1CCc2cc(S(=O)(=O)NCc3ccccc3Cl)cc3c2N1CC3 | 0 | i | . | . | -12 | . | 1 | 3
COC(=O)c1ccc(Oc2ccc3nnc(C)n3n2)cc1 | 0 | i | -2 | . | . | -4 | 5 | 1
CCn1cnc2cc(NCc3cccc(OC)c3O)ccc21 | -6 | i | -1 | . | -13 | -6 | 2 | 1
COc1cc(S(=O)(=O)NCc2ccncc2)c(OC)cc1Cl | -8 | i | -4 | 18 | . | -15 | 4 | -6
Nc1nc(SCC(=O)N2CCCCC2)[nH]c(=O)c1NC(=O)c1ccccc1F | 0 | i | -3 | . | -10 | 1 | 1 | 1
COc1cc(/C=N/NC(=O)C2COc3ccccc3O2)cc(OC)c1OC (stereo unspecified) | -3 | i | -4 | 44 | -6 | -3 | -2 | 1
CCCCNC(=O)Cc1ccc(Br)cc1 | 9 | i | -2 | -8 | . | -4 | 0 | 5
O=C(c1cn(-c2ccccc2)nc1-c1ccc(F)cc1)N1CCCCC1 | 15 | i | -6 | 15 | . | 35 | -5 | -5
Fc1ccc(CSc2nnc(-c3cnccn3)n2Cc2ccco2)cc1 | -12 | i | 10 | 15 | -17 | -6 | -3 | 2
CCc1ccc(C2=NN(c3ccc(S(N)(=O)=O)cc3)C(c3ccc(F)cc3)C2)cc1 (stereo unspecified) | 31 | ? | 3 | . | . | 2 | -7 | -3
Cc1ccc(NC(=O)c2nc(S(=O)(=O)Cc3ccccc3)ncc2Cl)cc1 | 104* | i | -5 | 1 | -15 | 4 | 2 | -3
Cc1cccc(C)c1NC(=S)N=Nc1c(O)n(C)c2ccc(S(=O)(=O)N3CCOCC3)cc12 | 29 | i | 0 | 29 | . | 6 | 6 | 1
O=C(NNc1cc(Cl)ccc1Cl)c1cccnc1Cl | -5 | i | 3 | -8 | . | -9 | -3 | 0
Cc1cccc(C(=O)NCc2nnc(SCc3ccc(F)cc3)n2C)c1 | -16 | i | 2 | -13 | . | 8 | 1 | -1
Cc1ccc(C(=O)NCc2ccc3c(c2)OCO3)cc1S(=O)(=O)N1CCCCC1 | -7 | . | -7 | . | -3 | 3 | 0 | -3
Cc1cc(C)nc(SCNC(=O)c2ccc(Cl)cc2)n1 | -5 | i | 0 | -18 | -23 | -6 | -2 | 2
CC(NC(=O)CN1C(=O)NC(C)(C2CC2)C1=O)c1ccc(F)cc1 (stereo unspecified) | . | . | . | -7 | -14 | . | 1 | 4
O=C(O)C[C@H]1c2ccccc2S(=O)(=O)N1c1ccccc1 | -7 | i | . | -32 | 3 | . | 2 | 3
CCCCCNC(=O)c1ccc2c(=O)n(CC3CCCO3)c(=O)[nH]c2c1 (stereo unspecified) | -7 | i | 0 | 20 | -7 | -7 | 3 | 5
COc1ccc(NC(=O)c2ccc(C(=O)c3cc(OC)ccc3OC)cc2)cc1 | 3 | i | -8 | . | -4 | -8 | 6 | 9
C#CCOCCOCCOCCNc1nc(N2CCN(C(=O)C([C@@H](C)CC)n3cc(C(N)CO)nn3)CC2)nc(N2CCN(C(=O)[C@H](CCC(=O)O)n3cc(C(N)CC(C)C)nn3)CC2)n1 (stereo partly specified) | -3 | i | -4 | . | 1 | 10 | -1 | 4
O=C(NCC1CC1)c1ccccc1Cl | -10 | i | 0 | 17 | -21 | -5 | -1 | 2
O=C(CCNC(=O)C1CCN(S(=O)(=O)c2ccccc2)CC1)NCc1cccc(C(F)(F)F)c1 | -15 | i | -7 | 9 | 3 | 11 | 5 | -8
COc1ccc(N2CCN(C3CC(=O)N(c4ccc5c(c4)OCCO5)C3=O)CC2)cc1 (stereo unspecified) | 19 | i | -3 | -36 | -2 | 4 | 14 | 7
O=C(/C=C/c1cccs1)N1CCCCC1 | -10 | i | -1 | -4 | -5 | -3 | -2 | -3
Cc1[nH][nH]c(=O)c1C(c1ccc(O)c([N+](=O)[O-])c1)c1c(C)[nH][nH]c1=O | -10 | i | 8 | -22 | -26 | 1 | -4 | -4
S=C1NCCOCCNC(=S)NCCOCCOCCOCCN1 | -4 | i | -6 | -2 | -16 | 6 | 3 | 7
O=C(CCc1ccncc1)N1CCCC(Nc2ccc(F)cc2)C1 (stereo unspecified) | 28 | i | -17 | . | -4 | -9 | -7 | 0
CCCCS(=O)(=O)N1CCN(S(=O)(=O)c2ccc(Cl)s2)CC1 | -15 | i | -8 | -11 | -17 | 0 | -1 | 3
CCN(CC)CCOc1ccc(/C(=C(\Cl)c2ccccc2)c2ccccc2)cc1 | 103* | i | . | -3 | 5 | . | 4 | 0
Cc1ccc(S(=O)(=O)N2CCN(C(=O)COC(=O)CCOc3ccccc3)CC2)c(C)c1 | . | . | . | -106 | -8 | . | -4 | 1
CCOc1ccc(S(=O)(=O)N2CCN(C(=O)COc3ccc(Br)cc3)CC2)cc1 | 17 | . | . | 3 | -7 | . | 3 | -18
C=CCNC(=O)c1onc(CSc2ccccc2CC)c1C(=O)O | 22 | i | 1 | -19 | -3 | -8 | 3 | 2
Cc1noc(C)c1S(=O)(=O)N1CCN(C(c2ccccc2)c2ccc(Cl)cc2)CC1 (stereo unspecified) | 13 | i | -3 | 1 | -16 | 10 | -5 | -8
Cc1ccc(NS(=O)(=O)c2cc(C(=O)N3CCN(CCO)CC3)ccc2C)cc1 | . | . | . | 2 | -3 | . | -3 | 2
Cc1noc(NS(=O)(=O)c2ccc(NC(=O)CSc3nc4ccccc4[nH]3)cc2)c1C | -8 | i | -1 | . | -2 | 12 | 3 | 2
Clc1ccc(Nc2cc(-c3ccccc3)nc3ncnn23)cc1 | -5 | i | 2 | -2 | -13 | -4 | 0 | -2
Cc1ccc(CN(Cc2cc3cccc(C)c3[nH]c2=O)C(=O)N(C)C)cc1 | -7 | i | 6 | 5 | -5 | 1 | -1 | -6
COc1ccccc1C(=O)NCCC(=O)N1CC=C(c2ccccc2)CC1 | 2 | i | . | i | 5 | . | 5 | 3
COc1ccc(C(=O)OCC(=O)N2c3ccccc3CC2C)cc1S(=O)(=O)N1CCOCC1 (stereo unspecified) | . | . | . | 24 | -12 | . | 2 | 10
Cn1ccnc1-c1nc2ccccc2[nH]c1=O | 0 | i | 3 | . | -11 | 6 | -2 | -1
Cc1ccc(S(=O)(=O)N(CC(=O)N2CCN(c3ccc(F)cc3)CC2)C2CCCCC2)cc1 | 10 | i | 4 | -9 | -12 | 12 | -9 | -18
O=C(COC(=O)CSCC(=O)N1CCCCC1)NCc1ccc(F)cc1 | -10 | i | -9 | -3 | -33 | 5 | -5 | -3
CCOc1ccc(N/C(N)=N/c2nc(C)c(C)c(=O)[nH]2)cc1 | 9 | i | 0 | 21 | -8 | -4 | -1 | 0
N#CCCN(C(=S)NC(=O)C1CCCCC1)c1ccccc1F | -16 | . | . | 40 | -12 | . | 1 | 8
CCc1cc(Cn2nc(-c3ccccc3)cc2C(=O)NCc2ccccc2OC)on1 | 10 | i | . | 3 | -7 | . | . | .
CCOc1nc(C)nc(NC(=O)NS(=O)(=O)c2ccccc2Cl)n1 | -6 | i | -4 | 20 | -13 | -2 | 4 | 4
CC(C)n1c(-c2ccccc2)nc(=S)c2c1CCCC2 | -7 | . | 5 | 4 | . | 7 | . | .
Cc1ccc2nc(COc3ccc(N(C)S(=O)(=O)c4ccccc4)cc3)cc(=O)n2c1 | 7 | i | 86 | 18 | . | 4 | . | . | eIF4H inh retest=-4;PABP polyA inh retest=-3
O=C(NNC(=O)c1cc(-c2cccc(Br)c2)nc2ccccc12)c1csc(N2CCOCC2)n1 | . | i | . | 1 | 18 | . | 11 | 4
COc1ccc(S(=O)(=O)CCc2nnc(NC(=O)c3ccc(F)cc3)s2)cc1 | 3 | i | 1 | -3 | -3 | 6 | 1 | 1
Cc1ccc(C(=O)OC(C)C(=O)Nc2ccc(Cl)cn2)s1 (stereo unspecified) | -20 | . | . | -2 | -13 | . | -4 | 1
COC(=O)C1=C(CS(=O)(=O)c2ccccc2)NC(=O)NC1c1ccc(O)cc1 (stereo unspecified) | 3 | i | -4 | 2 | -17 | 4 | -1 | 4

4 compounds picked at random from the list so far, as already listed:
SMILES | CSC inhib | Rce1 inh | eIF4H inh | HIV Env fusion | UUG fidelity | PABP polyA inh | MT1-MMP act inh | MT1-MMP act inh RFP | others
CCc1cc(Cn2nc(-c3ccccc3)cc2C(=O)NCc2ccccc2OC)on1 | 10 | i | . | 3 | -7 | . | . | .
COc1ccc(C(=O)OCC(=O)N2c3ccccc3CC2C)cc1S(=O)(=O)N1CCOCC1 (stereo unspecified) | . | . | . | 24 | -12 | . | 2 | 10
Cc1ccc(S(=O)(=O)N(CC(=O)N2CCN(c3ccc(F)cc3)CC2)C2CCCCC2)cc1 | 10 | i | 4 | -9 | -12 | 12 | -9 | -18
Cc1ccc(C(=O)OC(C)C(=O)Nc2ccc(Cl)cn2)s1 (stereo unspecified) | -20 | . | . | -2 | -13 | . | -4 | 1

Remaining list, next part:
SMILES | CSC inhib | Rce1 inh | eIF4H inh | HIV Env fusion | UUG fidelity | PABP polyA inh | MT1-MMP act inh | MT1-MMP act inh RFP | others
COc1cccc(NC(=O)N2CCCC2C(=O)NC2CCCCC2)c1 (stereo unspecified) | 0 | . | -8 | 0 | -19 | -1 | -2 | 1
O=S(=O)(NCC1CCCO1)c1ccc(Cl)nc1 (stereo unspecified) | 5 | i | 8 | 8 | . | -5 | -3 | 0
Cc1ccc(SC[C@H](Cc2ccccc2)N2CCN(CCc3ccccc3)CCC2=O)cc1 | 22 | i | -11 | 17 | 40 | 7 | 1 | -3
CCOC(=O)C(=CNc1cc(C)ccn1)C(=O)OCC | 2 | i | -8 | 17 | -17 | -2 | 4 | 0
O=C(NC1CCCC1)c1csc2c1CCCC2 | -1 | i | -9 | . | . | 5 | -1 | 6
N#CCc1nn(-c2ccccc2)c(N)c1C#N | . | i | -13 | . | -6 | -10 | -2 | 4
COc1ccccc1-c1nnc(SCC(=O)Nc2ccccc2)o1 | 3 | i | 2 | . | -1 | 0 | -2 | -1
